Screening data deposited in PubChem BioAssay by several laboratories.
GALR2 ag = GALR2 (human) receptor agonism; O43603; GALR2-expressing cells, agonist activation read-out; activation, %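 (tested at 5 µM)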; hit rate 0.48% among 140,000; AID 803;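 active = above mean plus 3 SD of all compounds, about 5% in these data, not always enough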;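 note: 0% = vehicle buffer wells and 100% = reference agonist at full effect; tested in CHO reporter cells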
Target sequence (O43603 whole entry, looked up): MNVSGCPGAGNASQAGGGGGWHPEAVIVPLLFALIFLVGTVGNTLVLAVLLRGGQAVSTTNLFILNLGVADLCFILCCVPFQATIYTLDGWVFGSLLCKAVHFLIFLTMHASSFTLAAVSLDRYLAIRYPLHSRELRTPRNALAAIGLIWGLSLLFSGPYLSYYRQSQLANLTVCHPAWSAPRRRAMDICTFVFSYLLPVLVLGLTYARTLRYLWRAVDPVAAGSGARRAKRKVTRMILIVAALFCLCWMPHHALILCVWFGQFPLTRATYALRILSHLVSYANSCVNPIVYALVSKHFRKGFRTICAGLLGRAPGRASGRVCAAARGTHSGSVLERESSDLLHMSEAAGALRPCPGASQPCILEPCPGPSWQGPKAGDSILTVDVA
PKD1 kinase inh = blocks activity of human protein kinase D1 | PKD1 kinase fluorescence polarization assay | inhibition, %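 (about 10 µM by stock and volumes)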 | hit rate 0.056% among 200,000;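 active = inhibition of 50% or more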;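 note: controls were vehicle for no effect and a reference inhibitor for full effect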
RGS16-Gao = RGS16-Galphao interaction regulator (human); bead-based flow cytometry RGS16-Galphao binding, fluorescence; actives lie on both sides; binding response (% of control), % at 10 µM; hit rate 0.38% among 220,000; AID 1441;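 active = below 25% or above 175%, edge rows of some plates excepted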;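 note: Galphao activated by GDP with aluminum fluoride before binding; 100% = wells without compound and 0% = beads without RGS; some results beyond the cut were filed as inactive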
Target sequence (O15492 whole entry, looked up): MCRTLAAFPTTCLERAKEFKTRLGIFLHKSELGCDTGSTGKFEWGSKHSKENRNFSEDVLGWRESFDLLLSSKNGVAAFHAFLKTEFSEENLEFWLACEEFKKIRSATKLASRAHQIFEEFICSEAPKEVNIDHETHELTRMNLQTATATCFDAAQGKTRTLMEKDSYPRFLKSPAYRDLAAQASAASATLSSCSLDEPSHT
Target sequence (P09471 whole entry, looked up): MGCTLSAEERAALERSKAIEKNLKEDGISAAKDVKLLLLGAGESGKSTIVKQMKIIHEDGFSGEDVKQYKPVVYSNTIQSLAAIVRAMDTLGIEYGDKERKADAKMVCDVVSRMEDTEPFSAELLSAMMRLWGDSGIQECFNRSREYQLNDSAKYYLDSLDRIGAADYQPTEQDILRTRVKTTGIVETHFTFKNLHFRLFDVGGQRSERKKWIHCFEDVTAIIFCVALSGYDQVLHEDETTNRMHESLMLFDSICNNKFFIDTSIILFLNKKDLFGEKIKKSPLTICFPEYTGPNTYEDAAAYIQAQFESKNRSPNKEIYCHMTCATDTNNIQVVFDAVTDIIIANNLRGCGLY
INS promoter inh = TRM-6 insulin promoter activity inhibition | TRM-6 cells (human fetal islet line), insulin promoter-eGFP reporter, imaging; reporter expression induced with tamoxifen | inhibition, % at 2 µM | hit rate 0.9% among 130,000 | AID 1273;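 active = inhibition above the mean plus 3 SD, with well images judged a real hit on visual review, cut at about 60% in these data, passing the limit was not always enough; inconclusive = inhibition over the cutoff but images rejected on review; inactive = inhibition not above the cutoff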
HSV replic up = HSV replication enhancement. hit rate 0.005% among 220,000. HSV replication augmentation in cells, fold increase. maximum fold increase;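 active = peak rise of 1.5-fold or more in the series; inconclusive = self-fluorescent or not available for retest; tested in PC3 cells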;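 note: first round at 10 µM; read as green reporter fluorescence; hits show the peak of a series up to 25 µM; 1 = signal of infected wells without compound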
INS promoter inh cell count = second read-out of INS promoter inh, no call of its own (marks repeat the call); normalized cell count, %; measured here: cell count, toxicity; reference of the scale not given here;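 cells exposed to compound for 48 h; stained nuclei by imaging scaled within each plate; lower means fewer cells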
HSV replic up primary fold = second read-out of HSV replic up, no call of its own (marks repeat the call); fold increase; compound at 10 µM; measured here: primary screen fold increase 10 uM; tested in PC3 cells;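 GFP signal in the first replicate; 1 = infected wells without compound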
* = called active by the depositor; i = inactive; ? = inconclusive; . = not tested or not shown.

SMILES	GALR2 ag	PKD1 kinase inh	RGS16-Gao	INS promoter inh	INS promoter inh cell count	HSV replic up	HSV replic up primary fold
CCN(CC)c1ccc(N=Nc2nn(C)c(C)c2[N+](=O)[O-])cc1	-0.5	-3	108	-28	123	i	0.76
CN(C)CCSc1nnc2sc3ccccc3n12	-0.9	-5	97	0	109	i	0.88
CCCCn1c(SCC(=O)c2ccc(OC)c(OC)c2)nc2cc(S(N)(=O)=O)ccc21	-0.1	-5	98	-12	118	i	1.1
CCOC(=O)C1(Cc2cccc(OC)c2)CCN(C(C)COC)CC1 (stereo unspecified)	.	7	101	.	.	i	1
NC(=O)c1oc2ccccc2c1NC(=O)c1ccc(F)cc1	-2.4	-10	114	.	.	i	1
Cc1ccc(C)[n+](CC(=O)c2ccc(-c3ccccc3)cc2)c1	.	9	107	33	100	i	0.87
COc1cccc(-c2noc(C3CCCN(S(=O)(=O)c4cccc(Cl)c4C)C3)n2)c1 (stereo unspecified)	-2.8	4	108	.	.	i	0.9
COc1ccccc1Nc1nc(Cl)nc(NC(C)(C)C)n1	.	-4	100	.	.	i	0.94
CCc1ccc(C(=O)CSC2=C(C#N)C(c3ccco3)C(C(C)=O)=C(C)N2)cc1 (stereo unspecified)	1.1	-8	104	.	.	i	0.93
O=C(NCc1n[nH]c(=S)n1-c1cccc(Cl)c1)c1ccc(S(=O)(=O)N2CCCC2)cc1	-1.6	1	99	-27	67	i	1.1
CCn1c(O)c(C=NCc2cccs2)c(=O)n(CC)c1=S	-0.7	-7	99	4	121	i	1
CC1(C)O[C@@H]2[C@@H](CO[C@@]3(COS(N)(=O)=O)OC(C)(C)O[C@@H]23)O1	.	.	100	.	.	i	0.86
COc1ccc(C(=O)Nc2sc(C)c(-c3ccccc3)c2C#N)cc1OC	-2.0	0	101	26	103	i	1
CCOC(=O)C1(CC2CC2)CCN(Cc2ccc3cccc(F)c3n2)CC1	.	-9	98	.	.	i	0.98
COc1ccc(NS(=O)(=O)c2cccc(NC(=O)NC3CCCCC3)c2)cc1	-1.0	-7	80	-3	60	i	1
CCOC(=O)Cc1nn(Cc2nc(-c3ccc(C#N)cc3)cs2)c(=O)c2ccccc12	.	.	105	.	.	i	0.86
CC1CN(c2ccc([N+](=O)[O-])cn2)CC(C)O1 (stereo unspecified)	.	.	105	.	.	i	1
N#Cc1c(NC(=O)CSc2n[nH]c(N)n2)oc(-c2ccccc2)c1-c1ccccc1	-1.4	-4	104	35	128	i	1
Cc1cc(C)nc(NC(=O)/C=C/c2ccc(Cl)cc2)n1	.	.	94	.	.	i	0.99
COc1ccc(N2CCN(CC(O)c3c[nH]c4ccc(OC)cc34)CC2C)cc1 (stereo unspecified)	-1.5	-4	102	12	93	i	0.81
CCC(=O)N(C)C(c1ccccc1Cl)c1nnnn1-c1c(C)cccc1C (stereo unspecified)	1.1	5	97	14	122	i	0.83
COc1ccc(CC(=O)NNC(=O)CSc2nnc(C)n2-c2ccccc2)cc1	-1.2	1	87	23	80	i	0.98
Cc1ccc2c(Cl)c(C(=O)NCc3cccnc3)sc2c1	-0.8	-4	99	-20	102	i	0.76
COc1cc(C2C3=C(Nc4nc(N)[nH]c(=O)c42)c2ccccc2C3=O)ccc1O (stereo unspecified)	.	.	87	.	.	i	0.9
COc1c(Cl)cccc1-c1cn2ccc(C)cc2n1	.	.	104	.	.	i	0.95
CCc1nnc(NC(=O)c2cccc(S(=O)(=O)N(C)c3ccccc3)c2)s1	-1.7	5	94	-51	107	.	.
COc1ccc(C2C(C#N)=C(N)Oc3cc(C)[nH]c(=O)c32)cc1OC (stereo unspecified)	.	.	100	.	.	i	1
O=C(CSc1nnc(Cc2ccccc2)o1)c1ccc(F)cc1	.	.	103	.	.	i	1.2
Cc1ccc(-c2noc(CCC(=O)Nc3ccccc3N3CCN(C)CC3)n2)cc1	-0.8	-12	96	-21	120	i	0.95
COc1ccc(OC)c(/C=N\NC(=O)c2ccc(=O)n(C)c2)c1	-1.1	0	110	57	140	i	1
Cc1ccccc1C(=O)Nc1ccccc1-n1cccc1	-2.7	1	101	-1	99	i	0.8
Cc1ccc(C(C)C)c(OCC(=O)N2CCOCC2)c1	-1.6	-3	99	0	95	i	0.92
CS(=O)(=O)NCCNc1ccc(C(F)(F)F)cc1[N+](=O)[O-]	.	10	100	43	113	i	0.92
O=C(NCCc1ccccc1F)/C(=C/c1cccnc1)NC(=O)c1ccccc1	-0.1	6	78	-31	86	i	0.94
O=C(CSc1nc2ccccc2n1CC(=O)N1CCCC1)Nc1ccc2c(c1)OCO2	-1.1	-3	97	-7	102	i	1.1
COc1ccc(N(C(C)C(=O)N/N=C(\C)C(C)(C)C)S(C)(=O)=O)cc1 (stereo unspecified)	.	-5	108	0	60	i	0.79
COc1cc([N+](=O)[O-])ccc1N/C=C/C(=O)c1cccs1	-2.3	-2	97	-71	161	i	1.2
Cc1c(C(=O)O)sc(=S)n1CCOc1ccccc1	-1.9	-12	100	21	114	i	0.95
Cc1cc(NC(=O)c2cccs2)ncc1NC(=O)c1cccc(F)c1	.	-4	106	.	.	i	0.95
Cc1noc(C)c1-c1nnc(-c2ccc(C(F)(F)F)cc2)o1	.	.	99	.	.	i	0.87

2 entries picked at random from those above, as already listed:
SMILES	GALR2 ag	PKD1 kinase inh	RGS16-Gao	INS promoter inh	INS promoter inh cell count	HSV replic up	HSV replic up primary fold
Cc1ccc(C(C)C)c(OCC(=O)N2CCOCC2)c1	-1.6	-3	99	0	95	i	0.92
Cc1ccc2c(Cl)c(C(=O)NCc3cccnc3)sc2c1	-0.8	-4	99	-20	102	i	0.76

(continued)
SMILES	GALR2 ag	PKD1 kinase inh	RGS16-Gao	INS promoter inh	INS promoter inh cell count	HSV replic up	HSV replic up primary fold
CCCCCCc1c(C)nc(-n2[nH]c(C)c(CCO)c2=O)[nH]c1=O	.	7	102	2	98	i	0.97
CCOC(=O)c1sc(N2N=C(C)/C(=C\c3ccc(OCC(=O)OC)cc3)C2=O)nc1C	-0.7	5	102	23	152	i	0.96
CCOC(=O)c1ccc(NC(=O)C2(c3ccccc3)CCCC2)cc1	-0.2	8	321	.	.	i	0.8
O=C(CSc1nnc(Cn2c(=O)sc3ccccc32)n1-c1ccccc1)N1CCCCCC1	-0.5	-12	99	.	.	i	1.3
CC1(C)CC(=O)C2=C(C1)NC(=O)CC2c1cccc(F)c1 (stereo unspecified)	-2.4	-6	100	-3	110	i	0.88
COc1ccc(C2CC(c3cccs3)=NN2C(=S)Nc2ccccc2)cc1OC (stereo unspecified)	-2.4	-14	129	.	.	i	1.1
Cc1ccc(CN(C(=O)c2ccco2)C(C(=O)NC2CCCC2)c2ccc(N3CCOCC3)cc2)cc1 (stereo unspecified)	-1.3	-10	101	-153	131	i	0.8
COc1ccc(C(=S)Nc2ccccc2)cc1	-2.0	-6	113	.	.	.	.
CCOc1ccccc1C(=O)Nc1cc(C(=O)NCC(C)C)ccc1Cl	.	-8	112	.	.	i	0.93
CCN(CC)c1nc2ccccc2nc1C(C#N)C(=O)NCCCOC (stereo unspecified)	-0.5	1	102	.	.	i	0.95
COc1cc(/C=C/C(=O)OCC(=O)c2c(N)n(C)c(=O)n(C)c2=O)ccc1OC(F)F	.	3	101	-41	97	i	1.2
O=C(/C=C/c1cccnc1)/C=C/c1cccnc1	.	.	98	.	.	i	0.54
Cc1cccc(NC(=S)N(CCN(C)C)Cc2cc3cccc(C)c3[nH]c2=O)c1	-0.5	2	99	-16	110	i	0.71
Cc1ccc(N/C=C/C(=O)C(C)(C)C)c(O)c1	-1.2	0	102	-28	103	i	0.95
CCNc1ccc(C2(O)C(=O)c3ccccc3C2=O)cc1	-0.1	9	108	20	104	i	0.97
O=C(c1cccnc1)N1C2C=CC(C2)C1(C(F)(F)F)C(F)(F)F (stereo unspecified)	-1.3	1	97	-38	89	i	1
COCCNC(=O)CCCn1c(=O)c2cc(OC)c(OC)cc2n(CC(=O)c2cccc(OC)c2)c1=O	.	-4	100	.	.	i	1.1
CC(=O)COc1ncn(-c2ccccc2)n1	0.2	1	101	-11	120	i	0.93
Cc1ccc(-n2c(C)cc(C)c(C#N)c2=O)cc1Cl	-2.4	-7	98	i	83	i	0.91
Cc1cc(=O)[nH]c(-n2nc(C)cc2C)n1	0.6	-3	101	.	.	?	.

Compounds listed so far with a nitro group on carbon (four):
SMILES	GALR2 ag	PKD1 kinase inh	RGS16-Gao	INS promoter inh	INS promoter inh cell count	HSV replic up	HSV replic up primary fold
CCN(CC)c1ccc(N=Nc2nn(C)c(C)c2[N+](=O)[O-])cc1	-0.5	-3	108	-28	123	i	0.76
CC1CN(c2ccc([N+](=O)[O-])cn2)CC(C)O1 (stereo unspecified)	.	.	105	.	.	i	1
CS(=O)(=O)NCCNc1ccc(C(F)(F)F)cc1[N+](=O)[O-]	.	10	100	43	113	i	0.92
COc1cc([N+](=O)[O-])ccc1N/C=C/C(=O)c1cccs1	-2.3	-2	97	-71	161	i	1.2

The results go on.
SMILES	GALR2 ag	PKD1 kinase inh	RGS16-Gao	INS promoter inh	INS promoter inh cell count	HSV replic up	HSV replic up primary fold
Cc1ccc(-n2nc(C)c3c2NC2=C(C(=O)CC(C)(C)C2)C3c2ccccc2OCC(=O)O)cc1 (stereo unspecified)	.	5	97	.	.	i	0.95
COC(=O)C1CCN(C2=C(NS(=O)(=O)c3ccc(Cl)cc3)C(=O)c3ccccc3C2=O)CC1	.	.	108	.	.	i	1.2
C=CCc1ccccc1OCC(O)CN1CCN(c2ccccc2F)CC1 (stereo unspecified)	-5.0	-15	99	16	107	i	1
Nc1c(-c2ccccc2)nc(Cl)nc1-c1ccccc1	-1.4	-5	110	.	.	i	0.89
Fc1cccc(-c2oncc2-c2nnnn2-c2ccc(Cl)cc2)c1	-2.5	-11	90	.	.	i	0.87
O=C(COC(=O)c1ccc(Br)o1)Nc1nc2c(F)c(F)c(F)cc2s1	.	.	99	.	.	i	1.2
Cc1ccc(CNC(=O)N[C@@H](Cc2ccccc2)C(=O)O)cc1	-1.0	-15	103	-7	106	i	0.94
CC1(C)CC(=O)C=C(NCc2cccc(C(F)(F)F)c2)C1	.	.	101	.	.	i	1.1
Cc1nnnn1CC(=O)Nc1cccc([N+](=O)[O-])c1	.	5	100	.	.	i	0.93
Cc1ccc(OCCSc2nnc(-c3ccncc3)n2C)cc1	-2.1	25	103	.	.	i	1
CCOC(=O)Cc1csc(NC(=O)Cc2ccc(Br)cc2)n1	.	.	96	.	.	i	1.1
Cn1c(=O)[nH]c(=O)c2cc(C(=O)c3cc(F)ccc3O)cnc21	.	-6	103	-140	68	i	1
CC(=O)N1CCOCCOCCN(C(C)=O)CCOCCOCC1	.	-1	103	.	.	i	0.94
COC(=O)c1cn(C)c2ccc(S(=O)(=O)N3CCCC3)cc2c1=O	-2.2	0	101	.	.	i	0.85
C/C(=N\Nc1cc(Cl)nc(C)n1)c1ccccc1	-3.7	-7	103	7	122	i	1.1
COc1cccc(Nc2nc3ccccc3n3nnnc23)c1	0.8	-4	75	-39	68	i	0.88
CC1=NN(c2ccc(C)cc2)C(=O)/C1=C\c1ccc(Br)s1	-1.2	-7	110	14	51	i	0.94
O=C(N/N=C/C1C(c2ccccc2)C1(Cl)Cl)c1cccc(Cl)c1 (stereo unspecified)	-1.6	-2	70	.	.	i	1.1
O=C(Nc1nnc(CSCc2ccc(F)cc2)s1)c1ccc([N+](=O)[O-])cc1	-1.7	-5	102	23	118	i	0.99
COc1cc(CNCCCN2CCOCC2)c(Br)cc1OCC(=O)Nc1ccccc1C	.	-3	100	-95	142	i	0.9
O=C(Nc1cccnc1)c1cc(-c2ccc(Cl)cc2)on1	.	-3	102	-8	108	i	0.89
COc1ccc(S(=O)(=O)N2CCOC2CNC(=O)C(=O)NCc2cccnc2)cc1C (stereo unspecified)	.	.	99	.	.	i	1.1
CC(C)(C)S(=O)(=O)c1cnc2c(S(=O)(=O)c3ccccc3)cnn2c1N	.	0	106	.	.	i	0.92
Cc1cc(=O)n2nc(N3CCCC(C(=O)N4CCN(C)CC4)C3)sc2n1 (stereo unspecified)	-2.2	-2	103	31	125	i	0.92
CCOc1c(Cl)cc(C(=O)Nc2cccc(C(=O)O)c2)cc1Cl	.	3	105	.	.	i	1
COc1ccc(C2CC(=O)C(C=NCCN3CCN(C(=S)Nc4ccccc4)CC3)=C(O)C2)cc1 (stereo unspecified)	.	.	89	.	.	i	0.86
COc1ccc(OCCNS(=O)(=O)c2cccc([N+](=O)[O-])c2)cc1	.	-1	106	-47	77	i	1
COc1ccc(Cl)c(S(=O)(=O)N2CCCC2)c1	-3.6	-7	110	0	86	.	.
CCOCCc1c(O)nc(SC)[nH]c1=O	.	.	95	.	.	i	0.95
COc1ccc(C(=O)Nc2cc3c(cc2C#N)OCO3)cc1S(=O)(=O)N1CCN(C)CC1	-2.5	-9	97	.	.	i	0.84
